# High-throughput results from PubChem.
# UUG fidelity: yeast start codon fidelity modulation | S. cerevisiae UUG-firefly luciferase reporter, luminescence/redox ratio | activity score, % at 18.7 µM | 350,000 tested, 0.13% active;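 active = replicate mean at a twofold rise or more, about +100% in these data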;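 note: firefly luciferase made from a UUG start codon reports start codon fidelity; reporter light over untreated wells divided by growth signal over untreated wells; some hits fall short of that in this replicate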
# PABP FP inh: PABP-poly(A) binding inhibition. P11940. PABP-poly(A) RNA binding, fluorescence polarization. inhibition, % at 35 µM. 290,000 tested, 1% active;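 active = 50% or more with normal probe brightness, or confirmed in later tests; inconclusive = above 50% with abnormal brightness, or retests that disagree; inactive = below 50% or failed in later tests; about a fifth of its hits are not listed in these tables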;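 note: calls also rest on retests at 20 µM and on dose response follow-up; controls were probe without protein and protein plus probe with vehicle; some compounds called inactive have numbers as strong as hits; many hits fall short of the cut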
# Target sequence (P11940 whole entry, looked up): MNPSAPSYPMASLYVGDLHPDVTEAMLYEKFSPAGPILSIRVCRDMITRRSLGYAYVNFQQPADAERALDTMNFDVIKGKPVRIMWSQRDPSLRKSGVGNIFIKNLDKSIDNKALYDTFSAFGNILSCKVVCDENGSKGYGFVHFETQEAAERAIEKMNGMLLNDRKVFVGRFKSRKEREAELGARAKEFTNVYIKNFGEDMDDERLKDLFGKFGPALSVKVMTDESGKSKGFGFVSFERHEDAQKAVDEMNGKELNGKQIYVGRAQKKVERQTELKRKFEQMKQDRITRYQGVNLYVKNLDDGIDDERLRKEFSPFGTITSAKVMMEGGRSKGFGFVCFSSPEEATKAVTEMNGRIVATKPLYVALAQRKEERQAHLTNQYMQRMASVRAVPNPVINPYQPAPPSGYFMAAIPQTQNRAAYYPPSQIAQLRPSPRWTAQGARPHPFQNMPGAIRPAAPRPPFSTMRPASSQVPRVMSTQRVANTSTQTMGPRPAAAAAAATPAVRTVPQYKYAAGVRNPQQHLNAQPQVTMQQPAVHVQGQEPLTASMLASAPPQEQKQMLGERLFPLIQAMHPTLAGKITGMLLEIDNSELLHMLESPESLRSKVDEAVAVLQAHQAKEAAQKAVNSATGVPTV
# Rce1 inh: inhibitors of yeast Ras-converting enzyme | Q03530 | yeast membranes, quenched prenylated peptide cleavage fluorescence | calls only | 290,000 tested, 0.27% active | AID 2563;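 active = fall in fluorescence gain of 50% or more versus controls, with final raw signal at or below 3038400; inconclusive = same 50% fall but final raw signal above 3038400; inactive = fall in fluorescence gain under 50%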;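 note: plate controls were neutral control wells for no effect and wells lacking membranes for full effect; tested at 10 µM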
# CSC inhib: cancer stem cell inhibition; cancer stem cell-like cells viability, luminescence; inhibition, % at 7.5 µM; 300,000 tested, 1.1% active;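 active = mean at 75% or more and at least half the replicates too; inconclusive = mean and replicates disagree; tested in HMLE shEcad cells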;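 note: 0% = median of negative and 100% = median of positive control wells; the first replicate is given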
# HIV Env fusion: inhibitors of HIV Env-mediated cell fusion. HeLa-JRFL Env/CEM21 cell fusion, luciferase. inhibition, % at 12.3 µM. 360,000 tested, 1.1% active. AID 651610;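 active = mean replicate inhibition score of at least 50 and every replicate individually at or above 50; inconclusive = only one of the two criteria met; inactive = mean below 50 and not all replicates reaching 50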;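 note: 0% = plate neutral controls and 100% = maraviroc near 300 nM; one replicate is shown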
# eIF4H FP inh: inhibitors of RNA binding by human eIF4H; inhibition, % at 35 µM; 290,000 tested, 0.94% active; Q15056; eIF4H fluorescence polarization binding assay;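 active = 50% or more with normal probe brightness, or confirmed in later tests; inconclusive = above 50% with abnormal brightness, or retests that disagree; inactive = below 50% or failed in later tests; about a fifth of its hits are not listed in these tables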;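 note: calls also rest on retests at 20 µM and on dose response follow-up; 0% = protein and probe with vehicle and 100% = probe without protein; strong numbers were not always called active; many hits fall short of the cut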
# MT1-MMP act inh: MT1-MMP (human) activation inhibition; P50281; HT1080 RFP-PRO-GFP cells, GFP/RFP ratio fluorescence, overnight; percent of plate control window, DMSO zero; GFP/RFP ratio change, % at 20 µM; 360,000 tested, 0.061% active; AID 651647;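 active = GFP/RFP ratio change of at least 30% with cell ATP level not reduced by more than half and red fluorescence within 50% of control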; note: strong numbers were not always called active
#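 Assay system: HT1080 cells carrying an RFP-PRO-GFP reporter | Dosing: Single dose of 20 µM compound, 1% DMSO final | Incubation: Cells overnight before dosing, compound overnight, 37 °C, 5% CO2 | Evaluation: GFP/RFP fluorescence ratio | Control set: DMSO and RFP-L50D-GFP cell wells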
# eIF4H FP inh retest: second read-out of eIF4H FP inh, no call of its own (marks repeat the call); inhibition, %; compound at 20 µM; confirmation average;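 mean of two retest wells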
# PABP FP inh retest: also measured in PABP FP inh; calls as there; inhibition, %; compound at 20 µM; confirmation repeats;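 mean of two retest wells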
# MT1-MMP act inh RFP: second read-out of MT1-MMP act inh, no call of its own (marks repeat the call); RFP signal change, %; measured here: RFP expression control read;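 0 = vehicle wells; hits needed this value within 50% of zero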
# * hit, by the source's call; i = inactive; ? = inconclusive; . = no result given. These rows are one share of the data; rates above refer to the full screens.
# Start of the data: the first 2 compounds (preview)
SMILES,UUG fidelity,PABP FP inh,Rce1 inh,CSC inhib,HIV Env fusion,eIF4H FP inh,MT1-MMP act inh,MT1-MMP act inh RFP,others
O=C(O)CSC1CC(=O)N(c2ccc(Cl)c(Cl)c2)C1=O (stereo not drawn),-36,6,i,-23,.,-8,-5,-2,
O=C(CNS(=O)(=O)c1ccc(Cl)cc1)N/N=C/c1ccco1,-6,5,i,1,14,-4,-11,0,

# All compounds of this part, from the start:
SMILES,UUG fidelity,PABP FP inh,Rce1 inh,CSC inhib,HIV Env fusion,eIF4H FP inh,MT1-MMP act inh,MT1-MMP act inh RFP,others
O=C(O)CSC1CC(=O)N(c2ccc(Cl)c(Cl)c2)C1=O (stereo not drawn),-36,6,i,-23,.,-8,-5,-2,
O=C(CNS(=O)(=O)c1ccc(Cl)cc1)N/N=C/c1ccco1,-6,5,i,1,14,-4,-11,0,
Cc1cccnc1NC(=O)COc1ccc2c(c1)CCC2,-27,.,i,-6,-96,.,0,5,
O=C(CCN1C(=O)[C@H]2CC=CC[C@H]2C1=O)NCc1nc(-c2ccc(Cl)cc2)no1,-19,0,i,-16,0,-4,0,-3,
O=C(COC(=O)/C=C/c1ccc(Cl)cc1)Nc1cccc(S(=O)(=O)NC2=NCCCCC2)c1,-2,.,.,-22,.,.,-2,0,
CCc1ccc(-c2cnc3ccccc3n2)cc1NC(=O)CNC(=O)c1ccccc1,-16,4,i,-4,-63,3,1,3,
COc1cccc(C(C)NC(=O)C2CCCO2)c1 (stereo not drawn),-12,-2,i,-2,-4,-4,1,2,
CCCCN(C(=O)c1ccc([N+](=O)[O-])o1)c1c(N)n(CC(C)C)c(=O)[nH]c1=O,-6,.,i,8,-2,.,-21,-1,
N#Cc1ccccc1COC(=O)c1cc(=O)c2ccccc2o1,-24,6,i,-5,-3,6,0,4,
NC(=O)CC(NC(=O)Cc1cccc2ccccc12)c1ccc(NCCOc2ccccc2)c([N+](=O)[O-])c1 (stereo not drawn),-9,-17,i,?,-15,-7,15,-5,
CCCCCCN1C[C@H](O)[C@@H](n2cc(-c3ccc(F)cc3)nn2)C[C@@H]1c1ccc(C)cc1,-4,.,.,.,-54,.,2,4,
CCCn1c(N)c(C(=O)CN2CCN(S(=O)(=O)c3cccc(Cl)c3)CC2)c(=O)[nH]c1=O,-5,.,.,-10,-7,.,9,2,
Cc1ccc(C(C(=O)NCC2CCCO2)N(Cc2ccccc2)C(=O)c2ccc(-c3ccccc3)[nH]2)o1 (stereo not drawn),.,2,i,38,-36,-2,-14,-14,
O=C(COc1cccc(Br)c1)N/N=C/C(=O)c1ccccc1,.,3,i,.,18,-3,-1,1,
OCC(CBr)(CBr)CBr,-16,.,.,-5,.,.,4,6,
O=C1CSC(c2ccccn2)N1c1ccc(Cl)c(Cl)c1 (stereo not drawn),-15,-7,i,-19,6,-7,-2,-4,
Brc1ccc(OCc2ccccc2)c(CNCc2ccncc2)c1,-37,11,i,4,18,-10,-36,-32,
CCOC(=O)c1c(NC(=O)CSc2n[nH]c(N)n2)sc(CC)c1C,31,-3,i,5,-23,-14,10,-6,
Cn1c(SCC(=O)Nc2nc3c(s2)CCCC3)nnc1-c1ccccc1,.,4,i,-14,.,0,1,2,
O=C(CC[C@H]1O[C@@H](n2ccc(=O)[nH]c2=O)[C@H](O)[C@@H]1O)NCCc1c[nH]c2ccccc12,12,.,.,.,-7,.,-1,4,
CCc1ccc(S(=O)(=O)NCCOc2cccc3cccnc23)cc1,-32,4,i,0,21,-1,1,-2,
Cc1ccc(Cn2nnc3c(=O)[nH]c(C4CCCN(C(=O)Nc5ccc(F)cc5F)C4)nc32)cc1 (stereo not drawn),-7,1,i,-8,.,-3,-9,-6,
Cc1ccc(CNC(=O)c2ccc(NS(=O)(=O)c3cccs3)cc2)cc1,-12,12,.,-9,0,-6,-2,-1,
COc1ccccc1CN(C)CC(=O)Nc1ccc(Cl)cc1C(F)(F)F,.,-6,i,21,2,-8,-2,-3,
CN1CCN(S(=O)(=O)c2ccc(Sc3nnc(-c4cccs4)n3-c3ccccc3)nc2)CC1,-6,0,i,-12,8,-7,-1,2,
Cc1cc(Cl)ccc1-c1nc(NCc2ccccc2)nc2ccsc12,-15,.,.,.,-28,.,-5,-9,
CCOc1ccc(C(C)=O)cc1CSc1nc(C)cc(C)n1,213*,-4,i,-6,0,-13,1,2,
Cc1cccc(N=Nc2c(C)[nH]n(C(N)=S)c2=O)c1C,.,1,i,-7,-86,7,.,.,
CC(=O)Nc1ccc(NC(=O)CCCNC(=O)c2ccc(Cl)cc2)cc1,-15,5,i,-18,5,9,-4,-2,
CCCN(CC1CC1)C(=S)Nc1ccccc1F,-14,4,i,3,22,-8,-7,9,
CC1OC(Nc2ccc(OC(F)(F)F)cc2)C(O)C(O)C1O (stereo not drawn),.,-9,i,.,-96,-7,4,4,
S=c1[nH]c2cnccc2n1Cc1ccccc1,-12,10,i,.,3,0,0,0,
COc1cccc(/C=N/NC(=O)c2cnn(-c3ccccc3)c2N)c1,-9,5,i,0,13,-4,3,4,
Cc1ccc(C(=O)Nc2cccc(-c3ccc(N4CCOCC4)nn3)c2)cc1,-6,.,i,-2,-42,.,10,-2,
Cc1ccc(C(=O)NCC2CCCO2)cc1N1CCCC1=O (stereo not drawn),-3,-2,i,-13,.,-1,0,0,
CCN(CC(=O)Nc1ccc(OC)cc1)C(=O)c1ccccc1Sc1ccccc1C#N,-3,.,i,-11,-14,.,-2,0,
CCCc1nc2c3ccccc3ccn2c1CC1CCCCC1,8,.,.,.,22,.,-2,-5,
O=C(O)c1ccc(-n2c(=O)c3ccccc3c3ccccc3c2=O)cc1,.,10,i,4,10,-8,-1,4,
CC(C)C(=O)NC(=S)Nc1ccc(S(=O)(=O)N(C)C)cc1,.,-16,i,5,-15,9,2,3,
CCCn1c(N2CCN(CC(=O)Nc3ccc4c(c3)OCCO4)CC2)nc2ccccc21,7,6,i,-2,-75,-3,3,3,
CN(C)CC/C=C1/c2cc(F)ccc2CSc2ccc(F)cc21,.,-12,i,9,1,8,-1,3,
CCN1C(=O)[C@H]2[C@@H](c3ccc(C)cc3)N[C@]3(CCCN(Cc4ccc(F)cc4)C3=O)[C@H]2C1=O,5,.,.,.,-45,.,0,3,
CCNC(=O)C1CCCN(C(=O)c2cccc(C#N)c2)CC1 (stereo not drawn),-13,.,.,.,3,.,1,6,
Cc1cc(NC(=O)CCC(=O)N(CC(=O)NCC2CCCO2)c2ccc(F)c(Cl)c2)no1 (stereo not drawn),-11,20,.,-14,5,-3,0,4,
C/C(CC(=O)Nc1ccc(OCc2ccccc2)cc1)=N\NC(=O)C(=O)Nc1ccc(C)c(Cl)c1,-26,-4,i,6,.,-7,3,-3,
COc1ccc(C(=O)NNC(=O)CCC(=O)NNC(=O)c2ccc(OC)cc2)cc1,.,-12,i,-2,3,27,-4,-2,
COc1ccccc1C/C(N)=N/OC(=O)COc1cccc2ccccc12,.,8,i,10,.,6,3,-3,
O=C(N/C(=C\c1ccccc1)C(=O)N1CCOCC1)c1ccco1,-27,14,i,17,-21,8,-1,2,
Cc1nc2ccccc2n1C(=O)N(C)C,.,11,i,.,-2,-11,0,4,
CCN(CC)S(=O)(=O)c1ccc(C(=O)NNC2=NS(=O)(=O)c3ccccc32)cc1,-12,16,i,-10,-19,6,3,2,
Fc1ccc(CSc2ccc3nnc(-c4cccnc4)n3n2)cc1,.,10,i,-4,-6,-3,2,-3,
O=C(COC(=O)CN1C(=O)NC2(CCCCC2)C1=O)Nc1cc(F)ccc1F,-19,.,.,-8,-24,.,4,2,
CSc1cccc(NC(=S)N2CCC(N(C)C3CCCC3)CC2)c1,-32,61*,i,50,0,2.1*,4,7,eIF4H FP inh retest=92*;PABP FP inh retest=100*
Cc1sc2nc3ccc(N4CCCCC4)nn3c(=O)c2c1C,-12,56,.,0,.,7,16,-4,eIF4H FP inh retest=9;PABP FP inh retest=12
O=C(NC(=S)Nc1cccnc1)c1cccs1,-2,-2,i,.,-17,4,-2,3,
COc1c(C)cc(C(=O)C2CCCN(Cc3cnc(N4CCOCC4)s3)C2)cc1C (stereo not drawn),.,1,i,-6,7,-8,1,-5,
C/C(=C\C(=O)c1ccncc1)Nc1ccccc1O,.,-5,i,7,.,8,2,6,
CC(=O)NC(CC(=O)Nc1cccc(S(=O)(=O)N2CCCC2)c1)c1ccccc1 (stereo not drawn),-8,-6,i,.,.,-12,0,1,
O=C(c1ccc(S(=O)(=O)N2CCCC2)cc1)N1CCN(S(=O)(=O)c2cccc(F)c2)CC1,-18,2,i,.,-6,0,-2,4,
CC1c2cc3c(cc2CCN1CC(=O)Nc1ccc(S(=O)(=O)N2CCCC2)cc1)OCCCO3 (stereo not drawn),-2,-5,i,-11,9,-4,5,3,

# The results go on:
SMILES,UUG fidelity,PABP FP inh,Rce1 inh,CSC inhib,HIV Env fusion,eIF4H FP inh,MT1-MMP act inh,MT1-MMP act inh RFP,others
Cc1cccc(/C=N/N2CCN(c3ccccc3)CC2)c1,30,-6,i,3,-197,1,3,2,
O=C(NC1CCCC1)C(c1ccccc1)N(Cc1cccnc1)C(=O)Cc1cccs1 (stereo not drawn),-15,-2,i,-7,10,-7,3,4,
CC(C)N1CC(C(=O)Nc2cccc([N+](=O)[O-])c2)CC1=O (stereo not drawn),-1,-12,i,-11,4,-9,0,4,
CC(C)N(C(=O)[C@H]1CC(CC(=O)NCCC2=CCCCC2)C(=O)N2CCc3c([nH]c4ccccc34)[C@]12C)C(C)C (stereo partly drawn),-8,.,.,43,.,.,-12,-17,
O=C(/C=N/O)NCC1CCNCC1,-23,3,i,.,.,-9,-2,0,
COc1cc(NC(=O)C(C)C)ccc1NC(=O)c1cc2ccccc2o1,-11,-7,i,-1,-207,-9,5,-5,
CCOc1ccccc1NC(=O)Cn1nnc(C(=O)NCCc2ccc(OC)c(OC)c2)c1N,.,4,i,-7,15,-2,2,-5,
COc1ccccc1OCc1cc(C(=O)N2CCN(C)C(c3ccccc3)C2)no1 (stereo not drawn),-9,1,i,13,.,-3,-1,-2,
C/C=C/C(=O)OCC(=O)Nc1ccccc1Br,.,12,i,-10,17,6,-1,2,
Cc1ccc(S(=O)(=O)NNC(=O)C(O)(c2ccccc2C)c2ccccc2C)cc1,5,6,i,-3,-5,-6,-9,-4,
COc1cccc(C(C)(O)c2nc(-c3cccc(C(C)C)c3)cs2)c1 (stereo not drawn),-7,.,.,.,24,.,3,-6,
Cc1cc(=O)oc2c3c(cc(OCC(=O)N4CCC[C@H]4C(=O)O)c12)OC(C)(C)CC3,-11,2,?,-7,.,1,3,5,
COC(=O)CC1C(=O)NCCN1C(=S)Nc1cccc(C(F)(F)F)c1 (stereo not drawn),-21,-14,i,-11,-4,7,0,3,
O=C(N/N=C/CCc1ccccc1)C1CCCCC1,.,1,i,8,11,2,-1,-1,
FC(F)(F)c1ccc(N2CCN(c3ncnc4c3nnn4Cc3ccccc3)CC2)nc1,-23,-12,i,-8,.,-8,2,-6,
Cc1cc(C)c(C)c(OCCCN(C)C)c1,-13,37,i,-9,10,4,3,5,
O=C(COC(=O)c1cc(S(=O)(=O)N2CCCC2)ccc1O)NCc1ccccc1,14,.,.,.,-3,.,3,4,
CCN(CC)CCCNC(=O)CSc1c2c(nc3cc(Cl)ccc13)CCCC2,.,6,i,2,-4,-1,-3,-2,
